# Screening results (PubChem BioAssay)
# Six1-Eya2 inh: blocks human Six1 binding to Eya2. AlphaScreen GST-Six1/His-Eya2 binding, biochemical; active compounds read low; control for the full effect not named in the record. activity change, % (test concentration not listed). 0.56% of 360,000 active; in the data active = activity change below about -65%; inconclusive = about -30% to -65%; inactive = above about -30%; note: % is set by controls: 0 for no effect and ±100 for the full control effect
#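 Six1/Eya2 binding was read as AlphaScreen signal after compounds were pinned into GST-Six1 plus His-tagged Eya2 (5X stock 250/500 nM) in pH 8.0 Tris/NaCl/TCEP buffer, beads added, then incubated 1 h, 37 C, dark.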
# gsp ag: gsp mutant agonism | gsp mutant cells, cAMP HTRF, 30 min; control for the full effect not named in the record | Potency, µM (doses to about 76.9 µM), without a hit: top-dose activation (cAMP increase), most hits filed as activators | 0.13% of 340,000 active | AID 624287; active = well fitted activation curve with a large enough effect; inconclusive = small, poorly fitted or top-dose-only effect, or another doubt; inactive = no such curve, though single readings can be large or run the other way; cell line not stated here;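 note: phosphodiesterase inhibitor Ro 20-1724 added with compounds to block cAMP breakdown; potency is the fitted concentration of half-maximal effect; nearly all actives have a fitted effect of over 60% in size; about a fifth of the inactives were tested at one dose only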
#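 Cells stably selected in G418 were plated at 2000/well, grown 16-24 hr, then given compounds in DMSO with the PDE inhibitor […] (300 uM solution added) for 30 min at 37C; cAMP was read by HTRF.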
# gsp antag: antagonists of gsp mutant (McCune-Albright syndrome). Potency, µM (series often up to 76.9 µM), for inactives: at the top dose activity change, negative = inhibition, usual class: inhibitors. gsp-mutant cells, cAMP HTRF, 30 min; control for the full effect not named in the record. 0.4% of 340,000 active; active = falling curve of any shape with a large fitted effect; inconclusive = falling curve, mostly with a smaller effect; inactive = flat or rising curve; cell line not stated here;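 note: intracellular cAMP measured with PDE inhibitor Ro 20-1724 present during compound exposure; potency is the fitted concentration of half-maximal effect; % is set by controls: 0 for no effect and ±100 for the full control effect; nearly all actives have a fitted effect of over 65% in size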
#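 Cells, 2000/well, grown 16–24 h in DMEM 10% FBS with 0.5 mg/ml G418, then compounds plus […] (300 uM addition stock), 30 min at 37C. cAMP read by HTRF (cAMP-d2 and anti-cAMP antibody-K in lysis buffer) after 30 min RT.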
# D2 PAM: potentiates the human D2 dopamine receptor allosterically. P14416. DiscoveRx D2 beta-arrestin cells, luminescence, 90 min; 100% = 57 uM dopamine signal. potentiation, % (no concentration beside the values). 0.23% of 360,000 active. AID 624464; active = potentiation of 50% or more; inconclusive = 30% to 50%; inactive = 30% or less;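 note: compound concentration not given in the record; tested on top of an EC20 dose of dopamine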
# Target sequence (P14416 whole entry, looked up): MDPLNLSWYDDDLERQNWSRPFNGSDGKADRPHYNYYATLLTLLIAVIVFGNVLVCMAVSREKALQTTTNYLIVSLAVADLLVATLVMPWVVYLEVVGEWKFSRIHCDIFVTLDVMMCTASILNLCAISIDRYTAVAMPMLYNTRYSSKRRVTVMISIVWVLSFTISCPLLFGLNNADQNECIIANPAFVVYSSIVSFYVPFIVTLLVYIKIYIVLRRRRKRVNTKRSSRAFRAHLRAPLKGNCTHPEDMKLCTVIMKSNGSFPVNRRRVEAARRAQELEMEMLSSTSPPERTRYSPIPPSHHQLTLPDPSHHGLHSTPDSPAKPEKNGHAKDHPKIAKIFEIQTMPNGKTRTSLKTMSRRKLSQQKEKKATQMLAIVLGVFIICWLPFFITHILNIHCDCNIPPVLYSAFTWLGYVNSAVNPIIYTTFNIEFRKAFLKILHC
#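 PathHunter beta-arrestin assay in DiscoveRx D2 cells. Compounds were added with an EC20 of dopamine (50 nM final) for 90 min at 37 deg C. Luminescence was read 1 h after detection reagent, with 57 uM dopamine as the EC100 control.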
# D2 agonist: activates the human D2 dopamine receptor | P14416 | DiscoveRx PathHunter D2 beta-arrestin, luminescence, 90 min; 100% = 57 uM dopamine signal | activation, % (test concentration not listed) | 0.084% of 360,000 active | AID 624465; in the data active = activation above about 40%; inconclusive = about 15% to 40%; inactive = below about 15%; note: compound concentration not given in the record; the text of the record calls up to 30% inactive
#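 Agonist mode: compounds alone added to overnight-plated D2 PathHunter cells for 90 min at 37 C, with 57 uM final dopamine (EC100) defining full response. Beta-arrestin recruitment detected by chemiluminescent reagent, read after 1 h at ambient temperature.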
# CtBP-E1A inh: blocks the CtBP interaction with E1A; AlphaScreen GST-E1A/His-CtBP binding, 1536-well; active compounds read low; control for the full effect not named in the record; activity change, % (concentration not given with the values); 0.49% of 340,000 active; in the data active means activity change below about -65%; inconclusive means about -30% to -65%; inactive means above about -30%; note: % is set by controls: 0 for no effect and ±100 for the full control effect
#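 Protein mix (5X: 125 nM each GST-E1A, His-CtBP) was incubated with pinned compound 2 h at 37 deg C in dark, in 50 mM Tris pH 8.0 buffer with 300 mM NaCl. Glutathione donor and nickel acceptor beads followed; AlphaScreen signal read after 1 h.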
# An asterisk follows results filed as active; u = inconclusive; x = not tested or not shown; [ ] = remark or other dose. Compounds as they come. Share with any hit: about 1.4%.
# Start of the listing, in advance:
Six1-Eya2 inh	gsp ag	gsp antag	D2 PAM	D2 agonist	CtBP-E1A inh	Compound
-5	-4%	-3%	3	-1.8	x	COc1ccc(S(=O)(=O)N2CCN(C(=O)CCc3c[nH]c4ccccc34)CC2)cc1
u	1%	32µM*	-10	-7.6	-25	Cc1ccc(CS(=O)(=O)c2ncc(Cl)c(C(=O)Nc3nnc(C)s3)n2)cc1
-1	-18%	8%	-7	-1.8	7	O=C(COc1ccc(F)cc1)NC1CC1
4	1%	8%	1	-1.5	5	CCCCN(C(=O)c1nn(C)c(=O)c2ccccc12)c1c(N)n(CCC)c(=O)[nH]c1=O
-4	-3%	0%	1	-3.4	9	COc1cccc(CNS(=O)(=O)c2cc3c(cc2C)n(C)c(=O)c(=O)n3C)c1
1	x	x	-11	-2.7	0	CCCNC(=O)c1cc(C2CCCCN2C(=O)c2cccs2)on1 (configuration not stated)
-7	5%	-12%	-5	0.5	11	O=C1C=C(c2cnc3ccccc3c2)C[C@@H](c2ccc3c(c2)OCO3)C1
-5	5%	-2%	-24	-4.1	1	C/C(NC(=O)c1ccccc1F)=C1\C(=O)C[C@@H]2[C@H]1C2(C)C
10	u	1%	11	-2.5	28	CNC(=O)NC(=O)C(C)OC(=O)c1c2c(nc3ccccc13)/C(=C/c1cccs1)CC2 (configuration not stated)
-6	2%	4%	0	-7.1	-21	CCN=C1S/C(=C\c2ccc(OCC)c(OC)c2)C(=O)N1CC

# Main list, from the start:
Six1-Eya2 inh	gsp ag	gsp antag	D2 PAM	D2 agonist	CtBP-E1A inh	Compound
-5	-4%	-3%	3	-1.8	x	COc1ccc(S(=O)(=O)N2CCN(C(=O)CCc3c[nH]c4ccccc34)CC2)cc1
u	1%	32µM*	-10	-7.6	-25	Cc1ccc(CS(=O)(=O)c2ncc(Cl)c(C(=O)Nc3nnc(C)s3)n2)cc1
-1	-18%	8%	-7	-1.8	7	O=C(COc1ccc(F)cc1)NC1CC1
4	1%	8%	1	-1.5	5	CCCCN(C(=O)c1nn(C)c(=O)c2ccccc12)c1c(N)n(CCC)c(=O)[nH]c1=O
-4	-3%	0%	1	-3.4	9	COc1cccc(CNS(=O)(=O)c2cc3c(cc2C)n(C)c(=O)c(=O)n3C)c1
1	x	x	-11	-2.7	0	CCCNC(=O)c1cc(C2CCCCN2C(=O)c2cccs2)on1 (configuration not stated)
-7	5%	-12%	-5	0.5	11	O=C1C=C(c2cnc3ccccc3c2)C[C@@H](c2ccc3c(c2)OCO3)C1
-5	5%	-2%	-24	-4.1	1	C/C(NC(=O)c1ccccc1F)=C1\C(=O)C[C@@H]2[C@H]1C2(C)C
10	u	1%	11	-2.5	28	CNC(=O)NC(=O)C(C)OC(=O)c1c2c(nc3ccccc13)/C(=C/c1cccs1)CC2 (configuration not stated)
-6	2%	4%	0	-7.1	-21	CCN=C1S/C(=C\c2ccc(OCC)c(OC)c2)C(=O)N1CC
6	-17%	-6%	2	-0.7	-3	Cc1nc(SC(C)C(=O)NCc2ccc3c(c2)OCO3)nc(C)c1C (configuration not stated)
-1	25%	7%	-5	-6.3	-1	O=C(c1cccc(Cl)c1)N(Cc1ccco1)C1CCS(=O)(=O)C1 (configuration not stated)
-11	u	11%	-12	-4.4	-4	CC1CCCCN1CCNC(=O)CCc1nnc2n(Cc3ccccc3)c(=O)c3ccccc3n12 (configuration not stated)
3	-2%[15.4 µM]	-1%	0	4.8	0	COc1cc(C(=O)Nn2c(C)nc3ccccc3c2=O)cc(OC)c1OC
30	-64%	-5%	-2	-1.0	30	CCOC(=O)c1c(NC(=O)c2ccccc2Br)sc2c1CCc1ccccc1-2
-22	23%	4%	-13	1.5	x	Cc1ccccc1-c1nc(CS(=O)(=O)CC(=O)NCCN2CCCC2)c(C)o1
3	u	11%	-3	-1.6	1	Oc1c(C(c2cccs2)N2CCOCC2)sc2ncnn12 (configuration not stated)
3	-2%[15.4 µM]	-5%	-2	-2.4	8	CC12CCC(C(=O)Nc3ccc(Cl)cc3)([C@H](Br)C1=O)C2(C)C (some centres not stated)
-5	1%	-2%	-8	-4.4	-6	Cc1cc(C)c2c(c1)c(C)cc1nnc(SCC(=O)NCc3ccco3)n12
-17	-63%[inhibitor]	5%	-25	-3.1	-12	COc1cc(CN2CCCC(C(=O)c3ccc(C(C)(C)C)cc3)C2)cc(OC)c1O (configuration not stated)
0	1%[15.4 µM]	-8%	3	0.7	-1	Cn1cccc1C(=O)NC(=O)COC(=O)CNC(=O)c1ccc(Cl)cc1Cl
21	-1%[15.4 µM]	-16%	-29	-2.4	0	Cc1nn(Cc2ccccc2)c2ncccc12
-3	28%	-2%	-6	-4.0	x	Cc1ccc(Nc2ncnc(N)n2)cc1C
7	-6%	12%	-20	-3.3	3	CN(C)CCN(C(=O)C1CCN(S(=O)(=O)c2cccs2)CC1)c1nc2ccc(F)cc2s1
-3	-32%	4%	-4	-5.8	-2	Cc1ccc(CNC(=O)CCCn2c(=O)c3ccccc3n(CC(=O)NCc3ccco3)c2=O)cc1

# Continued:
Six1-Eya2 inh	gsp ag	gsp antag	D2 PAM	D2 agonist	CtBP-E1A inh	Compound
-16	-1%	11%	2	-2.2	-4	Brc1ccc(/C=N/N2CCN(C3c4ccccc4-c4ccccc43)CC2)s1
9	-12%	15%	-2	-5.3	x	CC(=O)N1N=C(C)CC1c1ccc(O)cc1 (configuration not stated)
7	0%	-3%	-4	-1.3	4	Cc1cc(-c2nnc(CCC(=O)N3CCN(Cc4cccc(F)c4)CC3)o2)c(C)o1
2	-19%	1%	-5	1.9	8	O=C(c1cccc([N+](=O)[O-])c1)N1CC2C3C=CC(C3)C2C1 (configuration not stated)
5	14%	u	0	0.9	-9	COc1cc(C(=S)N2CCCCC2)ccc1OCC(=O)Nc1ccc(F)cc1
4	-3%	0%	-13	-5.2	x	O=C(COc1cccc(Cl)c1Cl)NC1CC1
-23	-14%	-19%	1	3.1	u	COc1ccc(NC(=O)c2cc3ccc(O)cc3o/c2=N\O)cc1
-26	21%[15.4 µM]	-20%	0	9.2	-19	CC(=O)Nc1ccc(S(=O)(=O)NCC(=O)OCc2cc(=O)oc3ccc4ccccc4c23)cc1
1	-79%[inhibitor]	-4%	4	3.6	1	C[C@H](NC(N)=O)C(=O)Nc1ccc(N2CCOCC2)c(S(=O)(=O)Nc2ccc(Cl)cc2)c1
5	-10%	3%	9	-0.2	14	CCOC(=O)C1CCN(S(=O)(=O)c2ccc(OC)c(OC)c2)CC1
-4	u	-3%	-21	-2.4	-9	CC(=O)Nc1ccc(S(=O)(=O)N2CCN(c3nc(NC4CCCC4)c4ccccc4n3)CC2)cc1
-2	3%[15.4 µM]	-11%	-4	-0.8	-1	O=C(CN(Cc1ccccc1)C(=O)c1csnn1)NCc1ccc2c(c1)OCO2
8	u	7%	2	-0.4	0	O=C1C2C3CCC(C3)C2C(=O)N1Cc1ccccc1 (configuration not stated)
11	3%[15.4 µM]	-3%	-1	-2.9	-1	CCOc1ccc(NC(=O)N2CCC(NC(=O)C(Cc3cccc(F)c3)NC(C)=O)CC2)cc1 (configuration not stated)
13	-13%	5%	1	0.1	12	CCOC(=O)N1CCN(C(=O)c2ccc(NS(C)(=O)=O)cc2)CC1
12	-3%	-7%	6	4.5	31	CN(c1ncc(C(F)(F)F)cc1Cl)N1C(=O)c2cccc(N)c2C1=O
14	5%	-31%	-7	0.2	0	O=C(NCc1ccc2c(c1)OCO2)c1ccc(Cl)c(S(=O)(=O)NCc2ccccc2)c1
-2	21%	5%	-1	4.2	1	COc1ccc(CC(=O)Nc2ccc(-c3nnc(-c4ccccc4)o3)cc2)cc1OC
7	-5%[15.4 µM]	2%	-6	-0.3	-2	CC(NC(=O)CSc1ncccn1)c1ccc2c(c1)OCO2 (configuration not stated)
-13	x	-7%	-17	-2.1	-28	Nc1cccc2nc3ccccc3cc12
-8	-1%[15.4 µM]	4%	-4	-0.8	0	COc1ccc(CC(=O)NNC(=O)c2c(-c3ccccc3Cl)noc2C)cc1OC
6	-6%[15.4 µM]	15%	-3	1.3	13	CC(C)Cn1c(=O)oc2ccccc21
6	u	8%	-6	-4.7	11	CC(=O)O[C@H]1c2ccccc2-c2ccccc2[C@@H]1OC(C)=O
-2	x	x	-7	-7.7	17	COc1ccc(OC)c(NC(=O)C2(C)CCN2C(C)C)c1 (configuration not stated)
-16	8%	-29%	-2	1.1	-16	CN(C)c1ccc(NC(=O)COC(=O)CCC(=O)c2ccc(F)cc2)cc1

# (continued)
Six1-Eya2 inh	gsp ag	gsp antag	D2 PAM	D2 agonist	CtBP-E1A inh	Compound
7	-13%	0%	-8	2.0	8	CCCS(=O)(=O)N1CCN=C1SCc1cccc(C)c1
-3	5%[15.4 µM]	-5%	-21	-2.6	-9	CCN(CC)C(=O)C1CCCN(c2ccc([N+](=O)[O-])cc2)C1 (configuration not stated)
-5	20%	6%	-30	-9.1	-2	CC(C)COc1nc2ccccc2nc1N1CCN(C)CC1
1	-26%	17%	-25	-0.3	3	O=C(CN1CCN(CCOCCO)CC1)N1c2ccccc2Sc2ccc(Cl)cc21
-9	u	9%	-2	-2.6	-11	Cc1cc(C)cc(C(=O)Nc2ccc(N3CCN(S(C)(=O)=O)CC3)cc2)c1
-26	22%	12%	-44	-3.4	u	C(=N\c1nccs1)/c1c[nH]c2ccccc12
-86*	13%	-7%	1	-5.9	-73*	COc1ccc(Cc2nnc(N/N=C/c3ccccc3O)[nH]c2=O)cc1OC
1	-22%	2%	8	-0.7	6	Cc1ccc(S(=O)(=O)NC(=O)NCCc2ccccc2)cc1
23	-9%[15.4 µM]	-29%	-6	1.0	0	Clc1ccccc1OCc1nnc(-c2ccccc2)o1
1	-43%[inhibitor]	-10%	-8	-2.2	9	CCOC(=O)C(C(=O)Nc1cccc(C)c1)C1CCCCC1 (configuration not stated)
10	-24%	-3%	-3	-1.4	6	COC(=O)C1=C(C)N(c2cccc(C(C)=O)c2)C(=O)C1
9	x	x	-11	-2.7	1	CCC(=O)N1CCC1(C)C(=O)Nc1ccc2scnc2c1 (configuration not stated)
-2	-3%[15.4 µM]	-5%	-12	-12	12	CCC1(C)CC2(CCCN(CCC(O)(c3ccccc3)c3ccccc3)C2)CCO1 (configuration not stated)
-8	33%	2%	-13	-1.8	-7	NCC(c1ccccc1)c1c[nH]c2ccccc12 (configuration not stated)
4	11%[15.4 µM]	-2%	-10	-2.1	-3	CS(=O)(=O)c1cccc(NC(=O)c2ccc(Cl)c(Cl)c2)c1
20	-17%	-23%	-2	-4.0	0	COc1ccc(C(=O)Nc2c(C)cc(C)cc2C)cc1OC
-7	-31%[inhibitor]	-1%	-4	0.3	1	COCCNC(=O)/C(C#N)=C/c1cccc(OCc2ccccc2)c1
